# High-throughput results (PubChem)
# UUG fidelity: yeast start codon fidelity modulation | S. cerevisiae UUG-firefly luciferase reporter, luminescence/redox ratio | activity score, % at 18.7 µM | 350,000 compounds, 0.13% hits;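 active = replicate mean at a twofold rise or more, about +100% in these data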;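 also: firefly luciferase made from a UUG start codon reports start codon fidelity; reporter light over untreated wells divided by growth signal over untreated wells; some hits fall short of that in this replicate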
# Rce1 inhib: yeast Ras-converting enzyme inhibition; 290,000 compounds, 0.27% hits; calls only; yeast membranes, quenched prenylated peptide cleavage fluorescence; Q03530;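 active = fall in fluorescence gain of 50% or more versus controls, with final raw signal at or below 3038400; inconclusive = same 50% fall but final raw signal above 3038400; inactive = fall in fluorescence gain under 50%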;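 also: plate controls were neutral control wells for no effect and wells lacking membranes for full effect; tested at 10 µM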
# Target sequence (Q03530 whole entry, looked up): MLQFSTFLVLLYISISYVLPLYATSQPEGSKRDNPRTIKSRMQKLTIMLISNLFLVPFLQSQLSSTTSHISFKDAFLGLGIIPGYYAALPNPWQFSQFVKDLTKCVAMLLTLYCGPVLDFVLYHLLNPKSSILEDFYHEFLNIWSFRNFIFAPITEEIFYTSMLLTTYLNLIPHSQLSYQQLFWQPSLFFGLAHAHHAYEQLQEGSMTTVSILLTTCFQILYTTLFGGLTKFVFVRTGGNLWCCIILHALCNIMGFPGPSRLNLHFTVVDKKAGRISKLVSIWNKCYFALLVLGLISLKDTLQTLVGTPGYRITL
# Env fusion inh: inhibitors of HIV Env-mediated cell fusion; HeLa-JRFL Env/CEM21 cell fusion, luciferase; inhibition, % at 12.3 µM; 360,000 compounds, 1.1% hits; AID 651610;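 active = mean replicate inhibition score of at least 50 and every replicate individually at or above 50; inconclusive = only one of the two criteria met; inactive = mean below 50 and not all replicates reaching 50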;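 also: 0% = plate neutral controls and 100% = maraviroc near 300 nM; one replicate is shown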
# eIF4H inh: inhibitors of RNA binding by human eIF4H | eIF4H fluorescence polarization binding assay | inhibition, % at 35 µM | 290,000 compounds, 0.94% hits | AID 2012;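 active = 50% or more with normal probe brightness, or confirmed in later tests; inconclusive = above 50% with abnormal brightness, or retests that disagree; inactive = below 50% or failed in later tests; about a fifth of its hits are not listed in these tables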;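 also: calls also rest on retests at 20 µM and on dose response follow-up; 0% = protein and probe with vehicle and 100% = probe without protein; strong numbers were not always called active; many hits fall short of the cut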
# PABP polyA inh: blocks human PABP binding to poly(A) RNA; P11940; fluorescence polarization; inhibition, % at 35 µM; 290,000 compounds, 1% hits;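 active = 50% or more with normal probe brightness, or confirmed in later tests; inconclusive = above 50% with abnormal brightness, or retests that disagree; inactive = below 50% or failed in later tests; about a fifth of its hits are not listed in these tables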;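 also: calls also rest on retests at 20 µM and on dose response follow-up; controls were probe without protein and protein plus probe with vehicle; some compounds called inactive have numbers as strong as hits; many hits fall short of the cut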
# CSC inhib: cancer stem cell inhibition; cancer stem cell-like cells viability, luminescence; inhibition, % at 7.5 µM; 300,000 compounds, 1.1% hits; AID 2717;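 active = mean at 75% or more and at least half the replicates too; inconclusive = mean and replicates disagree; tested in HMLE shEcad cells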;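 also: 0% = median of negative and 100% = median of positive control wells; the first replicate is given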
# MT1-MMP act inh: MT1-MMP (human) activation inhibition | GFP/RFP ratio change, % at 20 µM | AID 651647 | 360,000 compounds, 0.061% hits | P50281 | HT1080 RFP-PRO-GFP cells, GFP/RFP ratio fluorescence, overnight; percent of plate control window, DMSO zero;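 active = GFP/RFP ratio change of at least 30% with cell ATP level not reduced by more than half and red fluorescence within 50% of control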; also: strong numbers were not always called active
#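 Compound: 20 µM single dose, 1% DMSO / System: HT1080 RFP-PRO-GFP cells / Controls: DMSO and RFP-L50D-GFP cell wells / Read-out basis: GFP/RFP fluorescence ratio / Schedule: overnight compound exposure at 37 °C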
# eIF4H inh retest: also measured in eIF4H inh; calls as there; inhibition, %; compound at 20 µM; confirmation average;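 mean of two retest wells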
# PABP polyA inh retest: second read-out of PABP polyA inh, no call of its own (marks repeat the call); inhibition, %; compound at 20 µM; confirmation repeats;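 mean of two retest wells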
# MT1-MMP act inh RFP: recorded beside MT1-MMP act inh, whose call it bears; RFP signal change, %; measured here: RFP expression control read;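 0 = vehicle wells; hits needed this value within 50% of zero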
# * marks the source's active call; other numbers are inactive results; i = inactive; ? = inconclusive; . = not tested or not shown; & = joins results of further samples.
SMILES,UUG fidelity,Rce1 inhib,Env fusion inh,eIF4H inh,PABP polyA inh,CSC inhib,MT1-MMP act inh,MT1-MMP act inh RFP,others
CCN(CC)CCn1c2ccccc2c2nc3ccccc3nc21,-23,i,-72,-2,5,-5,-3,-2,
COc1ccc(C(=O)N2CCN(S(=O)(=O)c3cc(Cl)ccc3OC)CC2)cc1,10,i,.,-8,-7,-9,-2,0,
Cc1ccccc1-n1nc2c(c1NC(=O)c1ccco1)CS(=O)(=O)C2,-3,i,-13,-8,-2,-2,-2,5,
CCCCNC(=S)Nc1ccccc1Cc1ccccc1,-31,i,6,10,6,-8,3,-1,
COC(=O)[C@@H](NCc1cccc(CN[C@H](C(=O)OC)c2ccccc2)c1)c1ccccc1,1,i,2,-1,10,5,1,-3,
O=C(OCC(=O)N1N=C(c2ccc(Cl)cc2)CC1c1ccco1)c1ccco1 (stereo not drawn),.,i,-3,-8,-11,-8,-2,-2,
CCCCNC(=O)C1(C)CCN1Cc1ccc(C#N)cc1 (stereo not drawn),-18,.,3,.,.,.,0,5,
Cc1csc(=Nc2c(C)n(C)n(-c3ccccc3)c2=O)n1Cc1ccccc1,5,i,9,-9,-4,-5,2&-7,-6&-7,
COc1ccc(CN2CCN(S(=O)(=O)c3ccc(NC(C)=O)cc3)CC2)cc1OC,-7,i,.,-8,-6,-7,-3,-11,
O=C(NCc1cccnc1)/C(=C/c1ccc(-c2ccc(Cl)cc2)o1)S(=O)(=O)c1ccccc1,-7,i,.,5,-14,110*,-21,-28,
NC(=O)c1ccc(CSc2nc3ccccc3s2)cc1,-9,i,-30,-2,4,8,4,0,
Cc1cc(=O)oc2cc(NC(=O)c3cccc(S(C)(=O)=O)c3)ccc12,-23,i,-28,3,-3,-6,-2,0,
O=C(Nc1cnn(Cc2ccc(Cl)cc2Cl)c1)c1cc(-c2cccs2)on1,.,i,-60,-2,-4,17,9,-6,
Cc1ccc(NC(=S)N2CCCC2)cc1C,-27,i,2,1,5,-1,-12,-1,
COc1cccc(C(=O)Nc2nc(SCc3ccc(Cl)cc3)n[nH]2)c1,-15,i,4,-9,-2,10,2,2,
O=C1CC(C(=O)NC2CCCCC2)C2(CCCCC2)O1 (stereo not drawn),-18,i,-12,-3,9,-2,1,1,
CCOC(=O)C1CCCN(S(=O)(=O)c2cc(OCC(=O)NC3CCCCC3)c(C)cc2Cl)C1 (stereo not drawn),-2,.,3,-5,2,20,0,-15,
COc1ccc(CN2CCC2(C)C(=O)Nc2cnc3ccccc3c2)c2ccccc12 (stereo not drawn),13,.,29,.,.,.,-2,-1,
O=C(Oc1ccccc1C(=S)N1CCOCC1)c1ccccc1,-9,.,-11,-5,2,-14,-4,-1,
Cc1ccc(C(C(=O)NCc2ccco2)N(C(=O)CNC(=O)c2cccs2)c2ccc(C)cc2)cc1 (stereo not drawn),-18,i,.,4,-2,-8,1,0,
COc1ccc(CSc2nnc(Cc3sc(-c4ccccc4)nc3-c3ccccc3)o2)cc1,-11,i,-44,-1,4,-11,-1,-11,
CCCCS(=O)(=O)N1CCCC(C(=O)Nc2ccc(Cl)cn2)C1 (stereo not drawn),-8,i,-2,6,9,6,0,-5,
COc1ccc(C(=O)NC(=S)Nc2nnn(C)n2)cc1,-21,i,-3,-2,-12,20,1,2,
Cc1ccc(-n2cc(CN3CCN(c4ccccn4)CC3)c(-c3ccc(F)cc3)n2)cc1,-7,i,24,1,12,27,-11,-14,
CC1(C(=O)NCc2ccccc2)Cc2c(-c3cccc(C(F)(F)F)c3)ccnc2O1 (stereo not drawn),-4,.,-33,.,.,.,16,-10,
C/C(=N\Nc1cc(C(F)(F)F)ccc1Cl)c1ccccc1O,-5,i,-27,4,29,77*,-2,1,
O=C(Cc1ccc(S(=O)(=O)N2CCCCC2)cc1)NCc1ccc(Cl)cc1,-5,.,2,.,.,-4,-3,-2,
CC1CC(C)CN(S(=O)(=O)c2ccc3c(c2)n(C)c(=O)c(=O)n3C)C1 (stereo not drawn),0,i,5,-5,8,-5,1,0,
COc1ccccc1CNC(=O)CN1C(=O)c2cccc(N)c2C1=O,-7,i,-40,41,12,-1,2,9,
Brc1ccc(/C=N/Nc2ccccn2)cc1,-10,.,-16,0,?,3,3,-4,
OC(c1ccccc1)(c1nc(-c2cc3ccccc3o2)cs1)C(F)(F)F (stereo not drawn),-9,.,-30,.,.,.,-5,-15,
CCN(CC)c1ccc(C(=O)NC(=S)N2CCN(Cc3ccc4c(c3)OCO4)CC2)cc1,.,i,-2,2,4,8,-4,-1,
CN(C(=O)CCOc1ccccc1)c1c(N)n(Cc2ccccc2)c(=O)[nH]c1=O,-15,i,-8,.,.,1,1,2,
CC(C)c1cc(-c2cc(C(=O)Nc3ccccc3)on2)nc(NC2CCCC2)n1,-6,i,0,.,.,25,-4,-5,
COC(=O)c1ccc(NC(=O)CN2C(=O)CNC2=O)cc1,-12,i,-35,3,16,-2,0,2,
O=C(O)CN1C(=O)/C(=C/c2ccccc2Br)Oc2ccccc21,-7,i,-101,-7,0,-2,-2,0,
O=C(CN(C(=O)CCC(=O)Nc1ccccn1)C1CCCC1)NCc1ccccc1,.,.,4,-2,0,-7,2,5,
O=c1c2cc3c(=O)n(-c4ccccc4O)c(=O)c3cc2c(=O)n1-c1ccccc1O,.,i,-2,29,-8,-4,0,3,
CCC(=O)Oc1ccc2oc(=O)cc(C)c2c1,1,i,-7,-1,4,-14,-4,1,
Cc1cc(OCC(O)CN2C(C)CCCC2C)ccc1C(C)C (stereo not drawn),-6,i,8,-10,3,.,-3,3,
CC(=O)c1ccc(N(CC(=O)NCCc2ccccc2)C(=O)c2csnn2)cc1,-8,i,22,-4,2,-21,4,3,
CCc1nn(CC(=O)NCCN2CCN(C)CC2)c(=O)c2cc3occc3n12,.,i,.,-2,27,.,4,4,
O=C(Cc1coc(-c2ccc(F)cc2)n1)NCc1ccccc1,-7,i,.,5,-8,-9,1,3,
COc1ccc2c(=O)c(-c3ccc4c(c3)OCO4)coc2c1,-32,i,-110,7,-5,5,-3,-1,
O=C(NCCCN1CCCC1=O)Nc1cc(Cl)ccc1Cl,-11,i,-5,-7,3,-6,1,2,
CCC1CCCCN1C(=O)CCc1nnc(C2CCCCC2)o1 (stereo not drawn),-12,i,-2,-6,3,-8,2,3,
COc1ccccc1N1CCN(C(=O)c2oc3ccccc3c2C)CC1,.,.,9,-5,-4,.,-4,-3,
O=C(NCc1ccccc1Cl)c1cccc(NC2=NC3CS(=O)(=O)CC3S2)c1 (stereo not drawn),-19,i,5,-10,6,-10,-3,5,
O=C(CSc1ccc([N+](=O)[O-])cc1)OCC(=O)N1CCCC1=O,-18,.,.,.,.,-9,-4,-2,
O=S(=O)(NCc1cccs1)NCc1ccccc1F,-13,i,5,-3,4,14,-1,-1,
CN(C(=O)c1cccc(NC(=O)Cc2ccc(NC(=O)C3CCN(C(=O)C4CCC4)CC3)cc2)c1)C1CCC1,4,.,-11,.,.,.,-1,1,
Clc1ccc(SCc2nc3ccccc3[nH]2)cc1,-12,i,-115,-2,-7,-5,-2,-6,
CC(C)CN1CCN(Cc2cc3ccccc3[nH]2)CC1CCO (stereo not drawn),-13,i,-4,5,-1,-5,-11,5,
Fc1cccc(Cl)c1CNn1cn[nH]c1=S,.,i,-15,-2,-10,-2,5,6,
Cc1ccc(C)c(CN2C(=O)c3ccccc3S(=O)(=O)c3ccc(C(=O)N4CCN(C)CC4)cc32)c1,-20,i,-11,-7,-3,-10,-4,-1,
CN(C)C(=O)CN1CCN(C(=O)CCl)CC1,-9,i,9,-13,-8,-5,2,4,
COc1ccc(-c2[nH]c3ccccc3c2SCCNC(=O)c2ccccc2)cc1,6,i,.,2,4,39,0,-10,
O=C(CSc1nc2sccc2c(=O)[nH]1)N1CCN(c2ccccc2)CC1,-5,i,2,62,41*,-15,-3,3,eIF4H inh retest=26;PABP polyA inh retest=90*
CC(C(=O)OCC(=O)c1ccc(Br)cc1)N1C(=O)C2C3C=CC(C3)C2C1=O (stereo not drawn),-7,i,-2,-12,-1,12,2,-1,
Cc1ccc(C2=NCCn3nc4cc([N+](=O)[O-])ccc4c32)cc1,-9,i,-8,.,.,-18,-8,-1,

# Next results follow.
SMILES,UUG fidelity,Rce1 inhib,Env fusion inh,eIF4H inh,PABP polyA inh,CSC inhib,MT1-MMP act inh,MT1-MMP act inh RFP,others
COc1cccc(C(=O)OCC(=O)c2ccc(Br)s2)c1OC,-29,.,.,.,.,13,2,2,
Cc1ccccc1Cn1c(=O)sc2ccccc2c1=O,.,i,15,0,4,11,-5,-3,
CC(=O)C1=C(C)NC(C)=C(C(C)=O)C1c1ccccc1,.,i,-1,-2,-7,-3,6,1,
COc1cc(-c2nc(C(=O)NC3CCCCC3)cc3c2[nH]c2ccccc23)cc(OC)c1OC,-20,i,.,4,-17,-1,-11,-10,
CC(C)[C@H](NC(=O)c1ccccc1F)C(=O)OCC(=O)NC1CC1,.,.,-9,.,.,-2,2,4,
COC(=O)C1=C(C(=O)c2ccc(C)cc2)C(c2ccc(OC)c(OC)c2)n2nnnc2N1 (stereo not drawn),-8,i,.,2,7,-1,5,1,
COc1cc(-c2nc3cnccn3c2Nc2ccc(C(C)C)cc2)ccc1O,-9,i,.,-1,2,.,10,2,
O=C(CN1CCN(C(=O)c2ccco2)CC1)Nc1ccc(Cl)c(S(=O)(=O)N2CCOCC2)c1,.,i,-13,2,-4,-6,1,-1,
COc1ccc(C2c3[nH]c4ccccc4c3CCN2CCCn2cccn2)cc1C (stereo not drawn),.,i,-6,3,-2,-3,-4,-1,
O=C(O)CCN1C(=O)c2ccccc2Sc2ncccc21,-17,i,1,-2,1,-7,-1,1,
CC1=C(C#N)CCC(=O)N1Cc1c(C)cc(C)cc1C,-7,i,.,-3,-6,-2,4,-1,
CC(C)(C)S(=O)(=O)N1Cc2ccc(CO)cc2[C@H]1CCO,-11,.,-13,.,.,.,1,1,
O=C(CSC1=NS(=O)(=O)c2cc(Cl)ccc2N1)NCCc1ccccc1,-10,i,-11,.,.,-8,3,3,
CC(C(=O)Nc1ccccc1)N(C)CCOc1ccc(Br)cc1 (stereo not drawn),.,i,-2,1,-9,20,-2,-4,
Cn1c(CN2CCOCC2)nnc1SCC(=O)Nc1ccc2c(c1)OCCO2,-11,i,-99,-4,-4,2,.,.,
CCN(Cc1ccccc1)C(=O)c1ccc(SC)cc1OC,.,i,3,-6,4,3,2,4,
COC(=O)Nc1ccc(S(=O)(=O)Nc2cnc3ccccc3n2)cc1,.,i,24,-2,-2,-4,1,2,
Cc1ccc(C(=O)NCc2n[nH]c(=S)n2-c2ccccc2)cc1[N+](=O)[O-],-12,i,5,5,-6,-19,.,.,
C=CCn1c(SC(C)C(=O)NCC2CCCO2)nnc1-c1ccc(OC)cc1 (stereo not drawn),0,.,16,.,.,-16,-3,-2,
COc1ccc(C(=O)/C=C/c2ccc(F)cc2)c(OC(=O)c2ccc([N+](=O)[O-])cc2)c1,-10,.,.,0,6,19,-10,-10,
CCn1c(CC(=O)Nc2ccccc2Cl)nnc1SCC(=O)NC1CCCC1,-7,i,12,3,1,-11,2,1,
COc1ccc2oc(C(=O)Nc3ccc(C)cn3)c(C)c2c1,-3,i,-88,.,.,1,0,2,
COc1ccc(C(=O)N(C)CCCC2CCCC2)cc1OC1CCN(C(C)=O)CC1,-10,i,6,-18,-7,22,2,-5,

# Only part of the results is shown; count on the stated rates, not on these rows.
